rRNA inh HTS: reduced GFP signal of wild-type E. coli, primary screen, bacterial rRNA inhibitor project, GFP/RFP fluorescence, OD600, single point; E. coli WT GFP vs humanized-ribosome RFP mutants, 24 h; stronger effect = lower value; DMSO median 0, no signal -100; GFP signal change (wild-type ribosome), % (test concentration not listed); hit rate 1.6% among 350,000;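 active means significant combined selectivity score with lowered wild-type GFP, culture density cut under 30%, mutant RFP and density less affected; inactive means any of these conditions unmet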; further: one replicate is shown; some compounds called inactive have numbers as strong as hits
Bfl-1 A1 inh: caspase 3/7 activation in MEF A1-2A-BIM cells, primary screen, A1 inhibitor project, cell-based, luminescence, HTS; Caspase-Glo 3/7 luminescence, 3 h; percent of clofoctol response, vehicle zero; caspase activation, % (no concentration beside the values); hit rate 0.066% among 330,000; AID 2462, 2010;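 active means over half of replicate activation scores above 10%, or exactly half above 10 with the replicate mean above 10; inconclusive means replicate mean below 10 yet half the replicates above 10; inactive means over half of replicates below 10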;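 further: wells of about 30 µL received 50 nL stock; many hits fall short of the cut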
ALR inh: inhibitors of human ALR sulfhydryl oxidase, primary screen, biochemical, H2O2 detection, HRP-luminol luminescence, single point | purified ALR, DTT oxidation | inhibition, % (test concentration not listed) | hit rate 3.8% among 290,000;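 active means mean and each replicate at 75% or more; inconclusive means only one of the two met; inactive means neither met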;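 further: stock transfer was 7.5 nL into about 7.5 µL; 0% = neutral wells and 100% = wells with inactivated enzyme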
Target sequence (P55789 whole entry, looked up): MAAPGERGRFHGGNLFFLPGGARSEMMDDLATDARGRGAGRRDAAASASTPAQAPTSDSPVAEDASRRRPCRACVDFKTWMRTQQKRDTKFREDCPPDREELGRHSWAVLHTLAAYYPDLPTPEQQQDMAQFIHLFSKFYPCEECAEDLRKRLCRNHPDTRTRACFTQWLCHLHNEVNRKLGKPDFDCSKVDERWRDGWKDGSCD
Beta cell apopt: inhibitors of cytokine-induced beta cell apoptosis, primary screen, luminescence | protection from apoptosis, % (test concentration not listed) | AID 435005, 2010 | hit rate 0.8% among 300,000 | INS-1E cytokine-induced death, ATP luminescence, 48 h; percent of positive-control rescue, neutral wells zero;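 active means all replicates at 75% or more, or half of them and the mean; inconclusive means half reach 75% but not the mean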;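 further: 0% = cytokine-treated negative control wells and 100% = positive control rescue; higher means more ATP so stronger rescue from cytokine killing; wells of about 40 µL received 100 nL stock; the first replicate is given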
Beta2AR agonist: beta2AR agonists driving receptor internalization, primary screen, cell-based, FAP fluorogen, flow cytometry. Beta-2 adrenergic receptor (Homo sapiens), P07550. response, % (concentration not given with the values). hit rate 0.43% among 340,000. AID 504454, 2011. Am2.2-beta2AR cells; reference of the scale not given here;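 active means response above a set limit, near 3 SD of response in nonfluorescent compounds, cut at about 42% in these data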;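 further: stock transfer was 100 nL into about 11 µL; a reference agonist was the positive control; negative values mostly stem from fluorescent compounds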
Target sequence (P07550 whole entry, looked up): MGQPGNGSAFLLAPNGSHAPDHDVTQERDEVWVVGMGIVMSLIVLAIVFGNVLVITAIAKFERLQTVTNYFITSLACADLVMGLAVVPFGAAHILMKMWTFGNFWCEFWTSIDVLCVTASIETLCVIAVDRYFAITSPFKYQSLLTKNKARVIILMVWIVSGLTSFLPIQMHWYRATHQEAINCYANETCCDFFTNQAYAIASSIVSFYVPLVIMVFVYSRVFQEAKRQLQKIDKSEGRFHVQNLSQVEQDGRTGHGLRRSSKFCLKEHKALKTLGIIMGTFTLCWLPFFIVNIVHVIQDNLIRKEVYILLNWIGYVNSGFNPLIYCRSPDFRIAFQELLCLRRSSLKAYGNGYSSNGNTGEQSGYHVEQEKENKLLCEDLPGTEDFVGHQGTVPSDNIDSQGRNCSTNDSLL
Calb FLC: C. albicans growth inhibition with fluconazole, primary screen, CaCi-2 strain, Alamar Blue fluorescence; growth inhibition, % (concentration not given with the values); C. albicans CaCi-2 (fluconazole-resistant clinical isolate) + fluconazole, 48 h; hit rate 0.57% among 300,000;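 active means most replicates above 75%; inconclusive means exactly half above 75%; inactive means most below 75%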;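 further: all wells also contain fluconazole at 8 µg/ml as a sub-toxic cotreatment; 0% = median of DMSO wells and 100% = median of geldanamycin control wells; wells of about 8 µL received 7.5 nL stock; the first replicate is given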
LANA-H2A inh: blockers of LANA interaction with H2A/H2B – biochemical, FP readout, HTS, primary screen | Protein LANA1 (Human herpesvirus 8 type P (isolate GK18)), Q9QR71 | cell-free LANA-H2A/H2B peptide, fluorescence polarization | AID 2629, 2010 | inhibition, % (concentration not given with the values) | hit rate 0.6% among 320,000; in the data active means inhibition mostly above about 10%, no sharp cut-off; inactive means mostly below about 6.7%;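 further: stock transfer was 7.5 nL into about 10 µL; 0% = median of vehicle wells and 100% = median of positive control wells; one replicate is shown; the record names a cut of 25% in any replicate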
T cruzi inh: inhibitors of intracellular T. cruzi growth, primary screen, luminescence, NIH3T3 host cells. T. cruzi beta-gal in NIH3T3, 90 h. inhibition, % (test concentration not listed). hit rate 1.4% among 300,000. AID 1885, 2009;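 active means mean inhibition across valid replicates above about 55%, limit read from the data; inconclusive means mean below that limit but half or more replicates reach it; inactive means mean below it, under half of replicates reach it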;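 further: signal also drops with host cell toxicity which is not excluded here; 0% = plate median of DMSO wells and 100% = zero luminescence signal; higher percent means less beta-gal luminescence so fewer parasites; stock transfer was 50 nL into about 50 µL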
rRNA inh HTS OD600: also measured in rRNA inh HTS; calls as there; OD600 change, %; measured here: OD600 growth;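 optical density of the mix in the first replicate; 0 = DMSO median and -100 = no signal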
rRNA inh HTS RFP: second read-out of rRNA inh HTS, no call of its own (marks repeat the call); RFP signal change, %; measured here: RFP humanized mutant strains;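 first replicate; 0 = DMSO median and -100 = no signal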
Numbers without * were called inactive; ? = inconclusive; . = not tested or not shown.

Every second line gives: rRNA inh HTS	rRNA inh HTS OD600	rRNA inh HTS RFP	Bfl-1 A1 inh	ALR inh	Beta cell apopt	Beta2AR agonist	Calb FLC	LANA-H2A inh	T cruzi inh
COc1nc(N/N=C/c2ccc(-c3ccccc3[N+](=O)[O-])o2)nc(N2CCOCC2)n1
  13	0	8.3	0.1	38	4	19	-2	-0.1	-12
CCOC(=O)C1(C)NC(c2cccc(C)c2)C2C(=O)N(c3ccccc3)C(=O)C21 (stereo not drawn)
  20	13	0.0	0.7	-2	3	6	-1	0.4	7
O=C(Nc1cccc(C(F)(F)F)c1)C1CCCN(S(=O)(=O)c2cnc[nH]2)C1 (stereo not drawn)
  .	.	.	0.0	-6	-7	11	-5	-1.1	-6
CCCCC(=O)Nc1ccc(C(N)=O)cc1
  .	.	.	0.4	-1	-4	8	-1	5.4	-8
Cc1ccc(C(=O)NCCN2CCOCC2)cc1
  9	8	2.3	0.2	0	2	0	-2	-0.2	-27
O=c1oc2c(CN3CCN(CCO)CC3)c(O)ccc2cc1-c1ccccn1
  11	5	8.9	-0.4	2	-3	43*	6	-5.6	-8
CN(CC(=O)Nc1cccc(F)c1)C(=O)c1sc2ccccc2c1Cl
  .	.	.	-0.5	-4	2	-3	.	0.3	.
Cc1cc(C)nc(NC2=NCCN2C(=S)Nc2c(C)cccc2C)n1
  13	-4	-5.3	-0.5	.	0	15	35	-3.8	6
C=CCn1c(SCc2c(C(=O)OC)sc(N)c2C(=O)OC)nnc1-c1ccc(Br)cc1
  .	.	.	0.0	.	2	2	1	-3.7	19
COc1ccc(Br)cc1CNC(=O)C1CCN(C(=O)N(C)C)CC1
  3	1	-0.4	-0.1	-2	-9	-1	-4	-1.9	-5
CC1CCCCN1C(=O)Cn1c(=O)oc2ccccc21 (stereo not drawn)
  .	.	.	-0.2	.	3	1	33	-1.5	-4
Cc1cc(-c2n[nH]c(=S)n2/N=C/c2cccc(O)c2)n[nH]1
  16	3	1.0	0.4	96*	-2	-6	-3	3.8	-8
Cc1cc(C)n(S(=O)(=O)c2ccc(Cl)c(Cl)c2Cl)n1
  .	.	.	-0.9	2	3	-1	16	3.4	-4
CC(=O)NS(=O)(=O)c1ccc(NC(=O)c2ccc(Br)o2)cc1
  .	.	.	-1.4	-6	-6	4	-17	0.8	-21
COC(=O)c1ccccc1NC(=O)CSc1ncn[nH]1
  12	3	1.1	1.0	-3	-4	-1	-3	-7.2	-4

Every second line gives: rRNA inh HTS	rRNA inh HTS OD600	rRNA inh HTS RFP	Bfl-1 A1 inh	ALR inh	Beta cell apopt	Beta2AR agonist	Calb FLC	LANA-H2A inh	T cruzi inh
C/C(=C\C(=O)c1ccc(Cl)cc1)NCc1ccc2c(c1)OCO2
  .	.	.	0.7	-1	-6	-2	-12	0.0	-1
c1ccc(-c2nnc(SCC3CCCO3)nc2-c2ccccc2)cc1 (stereo not drawn)
  -18	-12	0.8	-1.7	18	2	-7	-5	-5.0	21
O=C(NCC1CC1)c1cc(-c2ccccc2)nn1CC1CC(c2cccnc2)=NO1 (stereo not drawn)
  5	10	-0.9	0.2	-2	-5	-3	-1	0.4	-5
Cc1cc(C(=O)Nc2ccc(S(=O)(=O)N3CCOCC3)cc2)ccc1[N+](=O)[O-]
  2	5	-0.7	1.5	-23	4	4	-6	5.5	-4
O=C(NCCCN1CCOCC1)C1Nc2ccc(OC(F)(F)F)cc2C2C=CCC12 (stereo not drawn)
  .	.	.	-0.1	-10	-4	-6	-3	2.6	8
COc1cc(/C=N/NC(=O)c2ccc3c(c2)OCCO3)cc(Cl)c1O
  -5	1	2.0	-0.1	94*	-3	12	20	1.3	3
COc1ccc(Cc2nnc(NC(=O)Nc3ccc(C)cc3)s2)cc1OC
  -4	-3	-4.8	-0.1	-8	-4	2	-11	1.1	-5
CN(C)/C=C/C(=O)c1ccc(Oc2ccccc2)cc1
  1	1	3.0	-5.2	2	1	22	17	-0.7	-9
COc1ccc(/C=N/NC(=O)c2ccc(=O)[nH]n2)cc1OC
  -12	-6	-9.3	0.7	-9	.	9	6	1.4	4
COc1ccc(NC(=O)COC(=O)c2ccc([N+](=O)[O-])o2)cc1Cl
  10	8	-27	0.4	-40	-4	8	15	0.9	4
Cc1cccc(C)c1OCC(=O)N(Cc1ccc(Cl)cc1)C1CCS(=O)(=O)C1 (stereo not drawn)
  -1	3	1.1	-0.4	-6	-2	6	21	8.1	25
COc1cccc(NC(=O)C(=O)NCC(c2ccco2)N2CCc3ccccc3C2)c1 (stereo not drawn)
  -8	-8	2.8	-0.7	-4	4	1	2	-1.5	21
CN(CC(=O)NCc1ccco1)S(=O)(=O)c1ccc2c(c1)n(C)c(=O)c(=O)n2C
  .	.	.	0.0	92*	-8	6	-19	-2.2	-15
COc1ccc(Nc2nc(N3CCCC3)c3ccccc3n2)cc1
  .	.	.	0.3	.	81*	18	12	-2.0	13
Cc1ccnc(NS(=O)(=O)c2ccc(NC(=O)c3ccc(S(=O)(=O)N(C)C)cc3)cc2)n1
  10	12	2.6	0.1	14	6	1	6	-4.2	-10

Five compounds from above, ordered by length of the SMILES, descending.
Every second line gives: rRNA inh HTS	rRNA inh HTS OD600	rRNA inh HTS RFP	Bfl-1 A1 inh	ALR inh	Beta cell apopt	Beta2AR agonist	Calb FLC	LANA-H2A inh	T cruzi inh
Cc1cc(C(=O)Nc2ccc(S(=O)(=O)N3CCOCC3)cc2)ccc1[N+](=O)[O-]
  2	5	-0.7	1.5	-23	4	4	-6	5.5	-4
Cc1cccc(C)c1OCC(=O)N(Cc1ccc(Cl)cc1)C1CCS(=O)(=O)C1 (stereo not drawn)
  -1	3	1.1	-0.4	-6	-2	6	21	8.1	25
COc1cccc(NC(=O)C(=O)NCC(c2ccco2)N2CCc3ccccc3C2)c1 (stereo not drawn)
  -8	-8	2.8	-0.7	-4	4	1	2	-1.5	21
COc1cc(/C=N/NC(=O)c2ccc3c(c2)OCCO3)cc(Cl)c1O
  -5	1	2.0	-0.1	94*	-3	12	20	1.3	3
COc1ccc(Cc2nnc(NC(=O)Nc3ccc(C)cc3)s2)cc1OC
  -4	-3	-4.8	-0.1	-8	-4	2	-11	1.1	-5

Remaining list, next part:
Every second line gives: rRNA inh HTS	rRNA inh HTS OD600	rRNA inh HTS RFP	Bfl-1 A1 inh	ALR inh	Beta cell apopt	Beta2AR agonist	Calb FLC	LANA-H2A inh	T cruzi inh
CC(NCc1ccc(S(N)(=O)=O)cc1)C(=O)N1c2ccccc2CC1C (stereo not drawn)
  -5	-2	-7.7	0.8	-2	-3	-5	-2	2.9	1
COCCCNC(=O)c1ccccc1NS(=O)(=O)c1ccc(C)cc1
  .	.	.	-0.8	-5	-7	0	.	-1.9	-4
COC(=O)Cc1ccc(NC(=S)N2CCN(C)CC2)cc1
  6	5	-2.0	1.4	-7	-4	10	-7	-0.6	-6
COCCn1c(C)cc(C(=O)COC(=O)c2cc3c(s2)CCC3)c1C
  .	.	.	-1.2	45	-9	2	?	-3.5	1
CC(=O)c1cccc(NC(=O)CCC(=O)Oc2ccc(C)cc2)c1
  9	7	-0.6	0.6	21	-8	-5	1	-1.5	-9
CCC(NC(=O)N(Cc1ccccc1)Cc1ccc2c(c1)OCO2)(C(F)(F)F)C(F)(F)F
  .	.	.	0.3	1	-2	-5	?	1.0	14
COc1ccccc1NC(=O)CSCc1nc2ccccc2[nH]1
  .	.	.	1.1	.	-3	-4	-3	.	-13
CC[C@@H](C)[C@H](NS(=O)(=O)c1ccc(C)cc1)C(=O)N1CCC(C(=O)NCC(=O)O)CC1
  .	.	.	-0.7	-4	-4	-13	-5	-1.5	-7
CCC(CC)CN1CCN=C1N(C)C
  4	1	17	0.1	-2	-3	0	4	2.8	-6
O=C(CSc1ccc(Cl)cc1)NN=C1CCCCCC1
  12	5	3.0	-0.6	5	-2	-7	-6	2.6	-12
CCN1CCC(N2CCN(c3ccc(Cl)cc3)CC2)CC1
  .	.	.	0.7	75	0	.	-3	2.2	-14
CC1Cc2ccccc2N1C(=O)c1cnc2ccccn2c1=O (stereo not drawn)
  .	.	.	0.3	-12	0	8	-14	-2.8	-6
CCOc1cc(/C=N/NC(=O)c2ccc(O)cc2)ccc1Oc1nc(Cl)ncc1F
  -16	-29	0.3	-0.2	.	3	12	-3	2.0	8
O=C(/C=C/c1ccco1)NC(=S)Nc1cc(-c2nc3ccccc3s2)ccc1Cl
  -23	37	18	-0.5	.	8	-3	.	0.1	.
CC(C(=O)O)C(=O)O
  .	.	.	1.5	-1	3	6	.	6.5	.

Every second line gives: rRNA inh HTS	rRNA inh HTS OD600	rRNA inh HTS RFP	Bfl-1 A1 inh	ALR inh	Beta cell apopt	Beta2AR agonist	Calb FLC	LANA-H2A inh	T cruzi inh
COc1ccccc1CNc1nc2nc3c(c(=O)n2[nH]1)CCC3
  .	.	.	-0.3	5	4	-4	-16	-4.9	-10
CCC(=O)NC(c1ccc(OC)cc1)c1c(O)ccc2ccccc12 (stereo not drawn)
  -33	-53	-11	0.1	4	12	-5	-1	-4.5	-72
CCOc1ccc(NC(=O)[C@@H]2CCC(=O)N2C2OC(=O)c3ccccc32)cc1 (stereo partly drawn)
  13	14	1.1	0.7	.	-1	-4	-1	4.1	2
O=C(CN(CC1CCCO1)C(=O)CCC(=O)Nc1nccs1)NCc1ccccc1 (stereo not drawn)
  .	.	.	0.5	-3	-8	-18	4	7.0	-17
Cc1ccc(C(=O)Nc2cccc(-c3ccc(N4CCOCC4)nn3)c2)cc1[N+](=O)[O-]
  2	9	-1.5	-0.3	.	15	15	-5	0.3	12
CC(C)[C@H](N)c1nnc2n1N=C(c1ccc(Cl)cc1)CS2
  1	0	8.5	-0.2	11	-2	-13	4	-1.4	-11
CCSc1cc(C)nc2ncnn12
  .	.	.	0.1	3	0	7	7	-0.2	-14
CN(c1ccc(C(=O)COC(=O)C2CC2)cc1)S(C)(=O)=O
  14	23	-0.2	?	-10	-6	4	.	-0.8	.
CNC(=S)N/N=C(\C)c1ccc(C(C)(C)C)cc1
  .	.	.	-0.1	4	-6	-4	-12	-7.8	-3
O=C(CCc1ccccc1)NC(=S)Nc1ccccc1Br
  -46	-73	-22	0.7	-10	1	10	-37	2.5	-13
O=C(NNc1ncnc2c1cnn2-c1cccc(Cl)c1)c1ccco1
  0	13	1.3	1.0	3	9	4	-6	4.1	-25
CN1CCN(S(=O)(=O)c2ccc(N(C)Cc3ccc(C(F)(F)F)cc3)c([N+](=O)[O-])c2)CC1
  -35	-60	-2.3	-0.8	-8	25	4	.	2.9	.
Cc1nc(NCc2ccco2)c(C#N)c2c1COC(C)(C)C2
  .	.	.	0.9	-3	8	2	-1	-0.9	-1

The list is partial; rates above refer to the full screens.
